High-throughput results as filed in PubChem BioAssay.
GLA inh pH 4.5 = qHTS Assay for Inhibitors of Human alpha-Galactosidase at pH 4.5 | Alpha-galactosidase A (Homo sapiens), P06280 | purified enzyme, 4-MU-alpha-Gal fluorescence, pH 4.5 | activity change, negative = inhibition, % at 105 µM | 230,000 tested, under 10 active | AID 1467, 2008; inconclusive = small, poorly fitted or top-dose-only inhibition, or a rising curve; inactive = flat fitted curve, though single readings scatter; no compound was filed as active;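 further: 0% = full activity with enzyme and -100% = basal without enzyme; dose as in the result columns while the protocol names 77 µM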
Rango complex inh = qHTS Assay for Inhibitors of Rango (Ran-regulated importin-beta cargo) - Importin beta complex formation | Importin subunit beta-1 (Homo sapiens), Q14974 | Rango CFP/YFP FRET sensor + importin beta, 45 min | Potency, µM (top dose mostly 92.2 µM), without a hit: top-dose inhibition of complex formation | 340,000 tested, 0.031% active | AID 540263, 2011; active = rising FRET ratio curve, often small or poorly fitted; inconclusive = mostly compound fluorescence or quenching in the first reads; inactive = flat curves in all reads;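 further: potency means the concentration at half of the fitted maximal effect; 0% = DMSO wells and 100% = buffer wells lacking importin beta; nearly all actives have a fitted effect of over 15% in size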
Target sequence (Q14974 whole entry, looked up): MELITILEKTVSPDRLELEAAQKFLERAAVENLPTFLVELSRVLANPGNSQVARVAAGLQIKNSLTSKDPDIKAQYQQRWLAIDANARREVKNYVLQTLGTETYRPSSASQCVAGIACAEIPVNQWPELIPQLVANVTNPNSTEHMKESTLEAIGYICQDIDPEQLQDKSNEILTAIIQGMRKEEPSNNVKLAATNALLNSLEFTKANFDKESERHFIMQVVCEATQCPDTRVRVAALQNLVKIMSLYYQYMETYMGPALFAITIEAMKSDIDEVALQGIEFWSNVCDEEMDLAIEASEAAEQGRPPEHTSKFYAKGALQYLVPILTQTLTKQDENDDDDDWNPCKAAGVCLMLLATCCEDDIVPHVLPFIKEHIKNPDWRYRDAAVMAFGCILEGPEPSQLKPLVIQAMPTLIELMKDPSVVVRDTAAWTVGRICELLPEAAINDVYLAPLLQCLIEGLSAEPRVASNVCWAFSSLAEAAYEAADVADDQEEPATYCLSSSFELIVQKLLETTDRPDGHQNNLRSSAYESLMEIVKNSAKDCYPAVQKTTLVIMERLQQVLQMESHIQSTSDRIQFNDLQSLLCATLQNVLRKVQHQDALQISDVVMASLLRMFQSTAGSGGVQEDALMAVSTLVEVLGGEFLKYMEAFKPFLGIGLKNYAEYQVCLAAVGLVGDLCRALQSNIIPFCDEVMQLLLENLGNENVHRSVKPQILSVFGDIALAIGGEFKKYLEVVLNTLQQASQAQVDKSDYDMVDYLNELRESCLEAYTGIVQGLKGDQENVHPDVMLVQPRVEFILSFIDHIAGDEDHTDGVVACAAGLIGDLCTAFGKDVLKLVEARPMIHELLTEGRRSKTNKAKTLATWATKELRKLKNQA
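FRET biosensor (snurportin 1 IBB flanked by EYFP and cerulean), 50 nM, with compound 5 min, then 0.125 microM importin beta in PBS, 1 mM DTT, 0.02% Tween-20, 0.1% BSA. CFP/YFP ratio read after 45 min at room temperature; pre-read flags interference.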
Rango release inh = qHTS Assay for Inhibitors of RanGTP induced Rango (Ran-regulated importin-beta cargo) - Importin beta complex dissociation. Snurportin-1 (Homo sapiens) + GTP-binding nuclear protein Ran (Homo sapiens) + Importin …. Potency, µM (titrated, usually from 46.1 µM), without a hit: at the top dose activity change, negative = inhibition. 340,000 tested, 0.071% active. Biochemical FRET Rango-importin beta, RanGTP-induced dissociation. AID 540253, 2011; active means falling FRET ratio curve, often poorly fitted, with flat reads before Ran was added; inconclusive means other falling curves, or compound fluorescence or quenching; inactive means flat or rising ratio curve;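 further: potency means the concentration at half of the fitted maximal effect; % of control where 0% means no effect; nearly all actives have a fitted effect of over 45% in size; -100% = wells without RanGTP and RCC1; the record marks most hits as doubtful in a second field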
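Recombinant Rango FRET biosensor (EYFP–snurportin 1 IBB–cerulean CFP10) at 0.1 uM premixed with 0.25 uM importin beta in PBS, 1 mM DTT, 0.02% Tween-20, 0.1% BSA. Compound added 5 min; RanGTP-RCC1 (0.6 uM Ran, 2 mM GTP, 0.2 uM RCC1) then triggers release, read at 45 min.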
miR-21 reporter = qHTS Assay for Modulators of miRNAs and/orActivators of miR-21; Potency, µM (doses to about 38.3 µM), without a hit: at the top dose reporter change, positive = more light; AID 2288, 2010; 340,000 tested, under 10 active; HeLa miR-21 FLuc reporter, luciferase, 48 h; active = well fitted rising curve with a large enough effect; inconclusive = small, poorly fitted or top-dose-only effect; inactive = no such curve, though single readings can be large or run the other way;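 further: % of control where 0% means no effect; miR-21 action dims this reporter so a rising signal means less miR-21 action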
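HeLa cells stably expressing CMV-driven firefly luciferase with a downstream miR-21 binding sequence, endogenously expressing miR-21, were treated with titrations (up to about 40uM final) for 48 hours at 37 degree Celsius. Luciferase luminescence was read after lysis.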
The depositor's hits bear a star; ? = inconclusive; / = no result given; & = joins results of further samples; [ ] = dose if it differs, or a comment. A portion of the library; count on the stated rates, not on these rows.

Rango complex inh | miR-21 reporter | Structure | Rango release inh | GLA inh pH 4.5
2.2% | -9% | Nc1cccnc1S(=O)(=O)c1ccccc1 | 26% | /
2.2% | -18% | C/C(CC(=O)Nc1ccc(F)cc1)=N\NC(=O)COc1ccccc1 | 8% | 6
-1.2% | -4% | COc1ccc(-n2cc(CNCCN3CCOC3=O)c(-c3ccccc3Cl)n2)cc1 | 0% | 4
4.9% | 18% | CC(C)(CNC(=O)c1ccc(Cl)c(S(=O)(=O)N2CCc3ccccc3C2)c1)N1CCOCC1 | 9% | -3
? | -1% | COCCN(C(=O)Cc1ccc(OC)c(OC)c1)c1nc(-c2cc(OC)ccc2OC)cs1 | 10% | /
0.1% | 21% | O=C(Cc1n[nH]c(=O)c2ccccc12)OCC(=O)c1ccc2c(c1)OCCO2 | 13% | 9
1.2% | -8% | CCN(CCn1cccn1)Cc1c(C(=O)N2CCCCCCC2)nc2ccc(Cl)cn12 | 2% | 7
? | 0% | CCNC1CCS(=O)(=O)C1 (stereo not drawn) | 3% | 2
-0.1% | 15% | CCC1(c2ccccc2)NC(=O)N(CC(=O)Nc2ccccc2N2CCCCC2)C1=O (stereo not drawn) | -1% | /
2.3% | -4% | O=C(CN(Cc1ccco1)C(=O)CCC(=O)Nc1ccccn1)NCCc1ccccc1 | -15% | 0
-0.5% | 2% | Cc1ccc(S(=O)(=O)N2CCN(Cc3ccco3)CC2)cc1C | 12% | /
0.2% | 5% | O=C(NCC1CCCO1)c1cccc(Oc2ccc([N+](=O)[O-])cc2Cl)c1 (stereo not drawn) | -11% | 1
-4.0% | 19% | CC(Nc1nc(N2CCOCC2)nc2ccccc12)c1ccccc1 (stereo not drawn) | 9% | 23
-0.4% | -38% | c1csc(CSc2nc3ccccc3s2)c1 | -7% | -4
-1.3% | -13% | O=C1/C(=C/c2cccc(O)c2)SC(=S)N1CC1CCCO1 (stereo not drawn) | -3% | -3
-5.0% | -24% | O=C(Nc1ccc(Br)cc1)N1CCCCCCC1 | -10% | -4
? | / | CC(Oc1ccccc1)C(=O)N1CCN(c2ccc(N3CCCCCC3)nn2)CC1 (stereo not drawn) | -14% | /
-0.3% | -4% | Cc1ccc(-c2nn(C)c(=O)c3ccccc23)cc1S(=O)(=O)N1CCOCC1 | 0% | 4
-3.8% | -4% | NNc1cc(C(=O)O)ccc1Cl | 3% | -4
1.3% | -6% | COCCNC(=O)c1c[nH]n2c(=O)cc(C3CCN(C(=O)OC(C)(C)C)CC3)nc12 | -16% | -19

A stretch from further up:
Rango complex inh | miR-21 reporter | Structure | Rango release inh | GLA inh pH 4.5
2.2% | -18% | C/C(CC(=O)Nc1ccc(F)cc1)=N\NC(=O)COc1ccccc1 | 8% | 6
-1.2% | -4% | COc1ccc(-n2cc(CNCCN3CCOC3=O)c(-c3ccccc3Cl)n2)cc1 | 0% | 4

(more compounds)
Rango complex inh | miR-21 reporter | Structure | Rango release inh | GLA inh pH 4.5
-3.8% | 5% | CN(c1ccccc1)S(=O)(=O)c1cccc(NC(=O)CSc2n[nH]c(N)n2)c1 | 4% | 2
-0.6% | -40% | CCN(CC)c1ccc(NC(=O)Nc2cccc3ccccc23)cc1 | 2% | /
-1.5% | 1% | Cc1cc(C(F)F)nn1CC(=O)NC1CCCC1 | -7% | /
-1.5% | / | CN(CC(=O)Nc1cccc(F)c1)C(=O)CCCc1nc2ccccc2c(=O)[nH]1 | -14% | /
1.1% | 12% | Cc1ccc(-n2cccn2)c(CN2CCCC(CNC(=O)c3ccc(F)cc3)C2)c1 (stereo not drawn) | 5% | 10
? | -6% | Clc1ccc(SCCCN2CCCCC2)cc1 | -11% | -6
1.8% | -46% | COc1cc(Cl)ccc1OCc1cc(C(=O)N2C[C@@H]3CCC[C@H]2C3)no1 | -1% | /
-1.2% | -1% | COc1cccc(C=O)c1OCCN1C(=O)c2ccccc2C1=O | 5% | /
-1.0% | -1% | Cc1ccc(S(=O)(=O)NNC(=O)CCC(=O)Nc2ccc(C)c(C)c2)cc1 | 1% | 2
3.0% | / | O=C(O)c1ccccc1-c1ncc(-c2ccccc2)o1 | 8% | /
-1.7% | / | COc1ccc(/C=C/C(=O)NNC(=O)c2ccncc2)c(OC)c1 | 13% | /
8.3% | -1% | COc1ccc(C)cc1S(=O)(=O)N(CC(=O)Nc1cccc([N+](=O)[O-])c1)c1ccccc1 | 7% | -17
7.0% | -72% | CC1CCc2c(C(=O)NCc3ccccn3)csc2C1 (stereo not drawn) | 27% | 15
1.8% | / | Cc1cc(N2C(=O)C(=O)/C(=C(/O)c3ccccc3)C2c2cccc(Br)c2)no1 (stereo not drawn) | -7% | /
-2.4% | -7% | CCn1c(SCC(=O)Nc2ccccc2F)nc2c(c1=O)SC(C)C2 (stereo not drawn) | 4% | -2
1.5% | -1%&3% | CCC1CN(C(=O)NCc2cccc(OC)c2)c2cc(Cl)ccc2O1 (stereo not drawn) | 0% | /
-0.7% | -7% | CCC(=O)Nc1ccc(NC(=O)CCc2ccccc2)cn1 | -1% | /
0.2% | -3% | Cc1ccccc1Cc1c(C)nc2nc(SCC(=O)NCCCN3CCCC3)nn2c1C | 2% | /
-3.6% | -5% | CC(C)(C)c1ccc(C(=O)Nc2ccc(O)c3c(=O)cc(-c4ccccc4Cl)oc23)cc1 | 0% | 3
-5.1% | 0% | CCOc1ccc2nc(C)cc(Nc3cccc([N+](=O)[O-])c3)c2c1 | 10% | -10
-4.3% | 23% | O=C(Nc1cc(Cl)ccn1)C1CCN(S(=O)(=O)c2cccs2)CC1 | 8% | -4
2.5% | -8% | CCOC(=O)CCCNc1ccc([N+](=O)[O-])cc1[N+](=O)[O-] | -15% | -14
-0.4% | -3%&-2% | CCC1Oc2ccccc2N(CC(=O)NCCc2ccc(OC)c(OC)c2)C1=O (stereo not drawn) | 1% | -3
/ | -11% | c1cncc(-c2nc3cc(Cc4ccc5oc(-c6cccnc6)nc5c4)ccc3o2)c1 | / | 2
? | -2% | CCn1cc(-c2ccnc3cc(C(=O)O)nn23)c(C)n1 | -29% | 21
0.6% | -8% | Cc1ccccc1C(=O)N1CCN(c2ccc([N+](=O)[O-])c(NCc3ccco3)c2)CC1 | 2% | 0
-5.2% | -1% | COc1cc(CN2CCNC(=O)C2CC(=O)N2CCCCO2)cc(OC)c1 (stereo not drawn) | 11% | 4
-1.1% | -56% | O=C(Nc1cccc(Cl)c1)N1CCN(Cc2ccccc2)CC1 | 25% | 4
2.6% | -14% | CCCNC(=O)c1ccc2c(c1)S(=O)(=O)c1ccccc1C2=O | 19% | /
-0.6% | 1% | O=C(NCC1CCCO1)C1CCN(S(=O)(=O)c2cc(Cl)ccc2Cl)CC1 (stereo not drawn) | 11% | /
-1.8% | -6% | CC(C)n1c(-c2ccco2)csc1=Nc1cccnc1 | -33% | -5
4.2% | -1% | N#C/C(=C(\O)Cc1ccccc1)c1nc2ccccc2[nH]1 | ? | 11
-3.3% | 13% | Cc1ccc(S(=O)(=O)NCc2ccncc2)cc1 | 3% | 4
2.9% | -4% | COc1cc(OC)cc(C(=O)NCc2cccnc2)c1 | -4% | -10
-0.8% | 0% | CC(C)CCN1CCN(Cc2ccc(C#CC(C)(C)O)s2)CC1CCO (stereo not drawn) | -12% | 3
-0.1% | 24% | Cc1onc(-c2ccccc2Cl)c1C(=O)N1CCC(Cc2ccccc2)CC1 | 1% | /
-1.8% | -1% | Cc1nccn1CC(O)COC1CCCCC1 (stereo not drawn) | 18% | -11
1.3% | -5% | CC(=O)c1cc2c(cc1NS(=O)(=O)c1ccc3c(c1)OCCO3)OCO2 | 26% | 1
-0.1% | 2% | Cc1c(C=O)n(C)n(-c2ccccc2)c1=O | 6% | 2
? | -1% | COc1cc(C(=O)NCCC(=O)NC2CCC(C)CC2)cc(OC)c1OC (stereo not drawn) | -2% | /
4.8% | -2% | O=C(Nc1scc(-c2ccccc2)c1C(=O)O)c1ccccc1Cl | -3% | /
-1.6% | / | Cc1ccc(C(=O)Nc2c(C)n(C)n(-c3ccccc3)c2=O)cc1S(=O)(=O)N1CCCCC1 | 4% | /
2.6% | / | COc1cc(-c2nnc3sc(-c4ccncc4)nn23)cc(OC)c1OC | -12% | /
2.2% | 1% | Cc1ccccc1NC(=S)Nn1cnnc1 | -1% | /
-0.3% | 0% | COc1cccc(-c2nc(-c3ccc(NC(=O)c4ccncc4)cc3)no2)c1 | 5% | 9
1.2% | -41% | O=C(NNC(=O)C1C2CCC(C2)C1C(=O)O)c1cccc(Cl)c1 (stereo not drawn) | 3% | 4
0.1% | -29% | Cc1ccc(C(=O)c2coc3ccc(O)c(Cl)c23)cc1 | 3% | 5
-1.0% | 1% | COC(=O)c1ccc(NC(=O)c2ccc3c(c2)C(=O)N(Cc2cccnc2)C3=O)cc1 | 1% | /
0.6% | -2% | CC1CN(C(=O)COc2ncnc3ccccc23)CC(C)O1 (stereo not drawn) | -5% | 7
4.5% | ? | CC1(C)CC(N2CCCC2)=CC(=[N+]2CCCCCC2)C1 | -20% | 2
-0.5% | -6% | CCC(C)N(C)C1CCN(C(=S)Nc2cccc(SC)c2)CC1 (stereo not drawn) | 1% | -4[21.1 µM]
-0.3% | / | O=C(c1ccc(Cl)cc1)N1CCC(C(=O)N2CCN(c3ncccn3)CC2)CC1 | -2% | /
3.8% | -1% | CCC(C)[C@H](NC(=O)[C@@H]1CSC2c3ccccc3C(=O)N21)C(=O)NCC1CCCO1 (stereo partly drawn) | -15% | /
2.5% | 1% | COc1cccc(C2C(C#N)=C(N)Oc3cc(C)n(Cc4ccccn4)c(=O)c32)c1OC (stereo not drawn) | -6% | -4
0.0% | / | COc1ccc(OCCCC(=O)NNC(=O)c2ccncc2)cc1 | 1% | /
0.7% | -6% | CC1CN(C(=O)/C=C/c2ccc(SC(F)F)cc2)CC(C)O1 (stereo not drawn) | -8% | /
-2.7% | 0% | CCN1CCN(CC(=O)Nc2cccc(C)c2C)C(=O)C1=O | -12% | -12
-8.7% | 20% | CCOC(=O)C1(CCCc2ccccc2)CCN(Cc2cnc(C)s2)CC1 | 15% | -9
-1.6% | 3% | Cc1cc2nc(CCl)cc(=O)n2[nH]1 | -3% | -2
-1.4% | / | CCCn1c(SCC(=O)N(C)C2CCS(=O)(=O)C2)nc2sc3c(c2c1=O)CCC3 (stereo not drawn) | 0% | /

Three compounds from above, sorted by count of non-hydrogen atoms, high to low:
Rango complex inh | miR-21 reporter | Structure | Rango release inh | GLA inh pH 4.5
-1.5% | 1% | Cc1cc(C(F)F)nn1CC(=O)NC1CCCC1 | -7% | /
-1.8% | -1% | Cc1nccn1CC(O)COC1CCCCC1 (stereo not drawn) | 18% | -11
2.2% | 1% | Cc1ccccc1NC(=S)Nn1cnnc1 | -1% | /

(more compounds)
Rango complex inh | miR-21 reporter | Structure | Rango release inh | GLA inh pH 4.5
1.2% | -3% | COc1ccc(-n2c(=O)[nH]cc(C(=O)Nc3ccc4c(c3)OCO4)c2=O)cc1OC | -11% | /
/ | -5% | Cc1ccc(N2C(=O)CC(N3CCN(C)CC3)C2=O)cc1 (stereo not drawn) | / | -17
-0.1% | -6% | CC(C)CCN1C(=O)c2ccc(C(=O)Nc3c[nH]c(=O)[nH]c3=O)cc2C1=O | -12% | -6
-1.1% | / | Cc1cc(Oc2cccc3c2S(=O)(=O)N(C2CCCC2)CC(COCc2ccccc2)O3)cc(C)c1C (stereo not drawn) | 32% | /
-2.5% | -9% | Cc1c(C)n(C)c2ccc(C(=O)Nc3cccc4ccccc34)cc12 | 6% | 5
3.4% | -77% | CC(=O)C(/C=N/c1cc(-c2ccc(C)cc2)nn1-c1ccccc1)=C(\C)O | 11% | -1
-1.6% | 6% | N#CC(=C=[N-])c1nc2ccccc2nc1-[n+]1cccc(NC(=O)c2cccs2)c1 | 2% | -1
-2.4% | / | O=C(COC(=O)CNC(=O)C1CCCCC1)Nc1ccccc1Cl | 19% | /
